KCNQ2 inh – KCNQ2 channel blockers in CHO-K1 cells – cell-based, FluxOR thallium flux, B-score, primary screen (AID 2156); 20 min; hits give low values; only compounds with negative scores are shown here; some inactives read as strong as hits; B-score at 10 µM; 310,000 tested, 1.1% active;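 active means fluorescence ratio B-score at most minus 3 library SDs, with starting brightness B-score within 2 library SDs, cut at about -5.5 in these data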
Target sequence (O88943 whole entry, looked up): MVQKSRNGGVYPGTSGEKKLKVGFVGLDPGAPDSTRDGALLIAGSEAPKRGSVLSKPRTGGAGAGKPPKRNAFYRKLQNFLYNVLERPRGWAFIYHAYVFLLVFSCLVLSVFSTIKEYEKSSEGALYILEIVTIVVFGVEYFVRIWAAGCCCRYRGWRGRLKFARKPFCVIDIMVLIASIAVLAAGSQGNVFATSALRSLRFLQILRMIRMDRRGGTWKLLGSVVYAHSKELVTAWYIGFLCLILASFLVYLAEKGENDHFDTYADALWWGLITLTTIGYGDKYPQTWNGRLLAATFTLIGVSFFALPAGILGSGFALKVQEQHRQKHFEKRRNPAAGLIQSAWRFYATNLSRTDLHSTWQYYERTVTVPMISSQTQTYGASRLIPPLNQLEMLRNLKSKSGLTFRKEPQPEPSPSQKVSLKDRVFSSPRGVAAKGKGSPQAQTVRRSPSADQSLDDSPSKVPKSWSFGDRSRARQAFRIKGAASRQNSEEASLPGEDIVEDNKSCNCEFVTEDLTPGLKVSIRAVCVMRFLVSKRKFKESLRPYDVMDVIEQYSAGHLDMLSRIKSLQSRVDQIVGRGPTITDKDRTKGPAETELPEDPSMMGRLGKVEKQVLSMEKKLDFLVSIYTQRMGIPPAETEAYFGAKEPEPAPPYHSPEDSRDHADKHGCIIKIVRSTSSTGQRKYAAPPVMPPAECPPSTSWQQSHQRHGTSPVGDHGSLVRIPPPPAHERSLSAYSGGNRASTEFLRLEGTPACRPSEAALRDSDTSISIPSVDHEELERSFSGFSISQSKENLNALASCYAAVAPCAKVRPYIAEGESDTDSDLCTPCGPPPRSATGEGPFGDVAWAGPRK
KCNQ2 inh baseline – second read-out of KCNQ2 inh, no call of its own (marks repeat the call); B-score; measured here: initial fluorescence intensity artifact check;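 brightness before thallium and not channel activity; 0 = typical well and far values either way flag optical interference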
The depositor's hits bear a star; i = inactive.

KCNQ2 inh	KCNQ2 inh baseline	molecule
i	1.46	Cc1ccc(NC(=O)C2CCN(S(=O)(=O)c3cccc4cccnc34)CC2)nc1
i	0.72	CCC(=O)NCCc1nc2cc(NC(=O)c3ccc(F)cc3)ccc2n1C
i	-1.06	CCOc1cc(/C=C2\C(=O)N(c3nc(-c4ccc(Br)cc4)cs3)N=C2c2ccccc2)ccc1O
i	-2.6	Cc1ccc(OCC(=O)Nc2ccc(NC(=O)c3ccccc3)c(C)c2)cc1
i	0.4	CC(C)C(OC(=O)c1cc2occc2n1C)C(=O)NCc1ccc2c(c1)OCO2 (stereo unspecified)
i	0.2	Cc1ccc2[nH]cc(CCNC(=O)c3ccc([N+](=O)[O-])cc3)c2c1
i	1.86	COc1cccc(-c2cc3nc(-c4ccccc4)cc(N4CCCC(O)C4)n3n2)c1 (stereo unspecified)
i	-0.31	O=C(c1cnc(N2CCN(c3ncccn3)CC2)c2ccccc12)N1CCN(c2ncccn2)CC1
i	-0.22	CN(C)c1nc(OCCNC(=O)COc2ccccc2Cl)nc(N(C)C)n1
i	0.22	O=C(CSc1ccc(Cl)cc1)N1CCN(c2ccc(Cl)cc2[N+](=O)[O-])CC1
i	0.78	Cc1ccc(CCNC(=O)c2sc3nc4n(c(=O)c3c2C)CCC4)cc1
i	-0.29	COc1ccc(CC(=O)N2CCCC(C)C2)cc1 (stereo unspecified)
i	-1.62	Cc1ccc(C(=O)Nc2cccc(O)c2)cc1S(=O)(=O)N1CCCCCC1
i	0.14	O=C(NC1=NCCS1)C1CCCCC1
i	0.01	CC(NC(=O)CCNS(=O)(=O)c1cccc2nonc12)c1ccccc1 (stereo unspecified)
i	-2.1	COC(=O)c1sccc1NC(=O)c1cccnc1
i	0.77	O=C(c1cccs1)N1CCN(c2cccc(Cl)c2)CC1
i	-1.33	O=C(O)[C@@H]1CCCN1C(=O)CCc1c[nH]c2ccccc12
i	2.81	COCCNC(=O)C(=O)c1cc(C)n(-c2ccc([N+](=O)[O-])cc2)c1C
i	6.08	CSc1nnc(N2C(=O)C(O)=C(C(=O)c3ccco3)C2c2ccc(F)cc2)s1 (stereo unspecified)

13 entries from above, ordered by heavy-atom count, smallest number first.
KCNQ2 inh	KCNQ2 inh baseline	molecule
i	0.14	O=C(NC1=NCCS1)C1CCCCC1
i	-2.1	COC(=O)c1sccc1NC(=O)c1cccnc1
i	0.77	O=C(c1cccs1)N1CCN(c2cccc(Cl)c2)CC1
i	-1.33	O=C(O)[C@@H]1CCCN1C(=O)CCc1c[nH]c2ccccc12
i	0.2	Cc1ccc2[nH]cc(CCNC(=O)c3ccc([N+](=O)[O-])cc3)c2c1
i	2.81	COCCNC(=O)C(=O)c1cc(C)n(-c2ccc([N+](=O)[O-])cc2)c1C
i	0.01	CC(NC(=O)CCNS(=O)(=O)c1cccc2nonc12)c1ccccc1 (stereo unspecified)
i	-1.62	Cc1ccc(C(=O)Nc2cccc(O)c2)cc1S(=O)(=O)N1CCCCCC1
i	-2.6	Cc1ccc(OCC(=O)Nc2ccc(NC(=O)c3ccccc3)c(C)c2)cc1
i	0.4	CC(C)C(OC(=O)c1cc2occc2n1C)C(=O)NCc1ccc2c(c1)OCO2 (stereo unspecified)
i	1.86	COc1cccc(-c2cc3nc(-c4ccccc4)cc(N4CCCC(O)C4)n3n2)c1 (stereo unspecified)
i	-1.06	CCOc1cc(/C=C2\C(=O)N(c3nc(-c4ccc(Br)cc4)cs3)N=C2c2ccccc2)ccc1O
i	-0.31	O=C(c1cnc(N2CCN(c3ncccn3)CC2)c2ccccc12)N1CCN(c2ncccn2)CC1

(next part)
KCNQ2 inh	KCNQ2 inh baseline	molecule
i	-0.92	CC(C)(C)OC(=O)NCCCC[C@H](NC(=O)c1nc[nH]c1C(=O)NCC(=O)OCc1ccccc1)C(=O)OC(C)(C)C
i	0.05	O=C1CC(=O)Nc2cc(S(=O)(=O)N3CCN(c4ccc([N+](=O)[O-])cc4)CC3)ccc2N1
i	2.28	CCOC(=O)c1cc2sccc2n1CC(=O)Nc1ccc(OC)cc1OC
i	1.15	CCOC(=O)C1(Cc2ccccc2Cl)CCN(C(=O)c2cc(C)on2)CC1
i	-0.12	O=C(c1ccc(C(F)(F)F)cc1)N1CCC(=O)N(C(COCc2ccc(C(F)(F)F)cc2)Cc2ccccc2)CC1 (stereo unspecified)
i	-0.39	O=C(CSc1nccc(=O)[nH]1)c1ccccc1Br
i	0.61	COc1ccc(C(=O)NC(NC(=S)Nc2ccc(S(N)(=O)=O)cc2)C(Cl)(Cl)Cl)cc1 (stereo unspecified)
i	-1.5	CC(C)OC(=O)c1ccc(COC(=O)CNC(=O)c2ccco2)cc1
i	0.91	COc1ccc(NC(=O)CN(C)C(=O)Cn2c(=O)oc3ccccc32)cc1
i	-0.58	C/C(=N\Nc1cccc2cccnc12)c1ccccn1
i	1.19	CCOC(=O)C1CCN(C2=NC(=O)/C(=C/c3ccc(O)cc3)S2)CC1
i	-1.13	CN(C)CCCN(C(=O)COc1ccccc1)c1nc2c(Cl)cccc2s1
i	-1.46	COc1ccc(COc2cc(-c3cccc(OC)c3)nc3ccc(NC(=O)C(C)C)cc23)cc1
i	0.44	Cc1ccccc1NC(=O)c1cccc2nc3ccccc3nc12
i	0.01	CC(C)(C)c1cc(N2CCOCC2)n2ncc(-c3ccccc3)c2n1
i	-0.5	COc1cc(-c2nc(-c3ccc(Br)o3)no2)cc(OC)c1OC
i	0.42	CN(C)c1nn(C(=O)Nc2cccc(C(F)(F)F)c2)cc1-c1ccccc1
i	-0.02	O=C(Nc1ccc2oc(-c3cccc4ccccc34)nc2c1)c1ncn[nH]1
i	1.07	Cc1ccc2nc(N3CCN(C=O)CC3)nc(-c3ccccc3)c2c1
i	2.18	O=c1cc(N2CCc3ccccc32)[nH]c(=O)n1Cc1ccc(F)cc1
i	1.5	CCc1ncc(CN2CCCC(C(=O)Nc3cccc(-c4ccc(F)cc4)c3)C2)cn1 (stereo unspecified)
i	1.03	O=C(Cc1ccccc1)NCCc1cn2ccsc2n1
i	1.03	COc1cccc(CNC(=O)Cn2ccc3cc(S(=O)(=O)N4CCC(C)CC4)ccc32)c1
i	-0.07	COC(=O)Cc1c(C)c2ccc(OCc3nn[nH]n3)cc2oc1=O
i	0.75	Cc1c(C)c2ccc(OS(C)(=O)=O)c(C)c2oc1=O
i	0.12	Cc1ccc(S(=O)(=O)CCN2CCN(c3ccccn3)CC2)cc1
i	2.48	COc1ccc(CCNC(=O)CCC(=O)N2CCN(S(=O)(=O)c3ccccc3)CC2)cc1OC
i	-1.27	O=C(CN1C(=O)c2ccccc2S1(=O)=O)NCc1ccccc1
i	-4	CC(C)Nc1ccc(Nc2ccnc3cc4ccccc4cc23)cc1
i	-0.01	O=C(Nc1ccc2ccccc2c1)/C(=C\c1ccc2c(c1)OCO2)NC(=O)c1ccco1
i	0.08	O=C(Nc1cc(C(F)(F)F)ccc1N1CCOCC1)c1ccccc1F
i	0.29	COc1ccc(CCNC(=O)COC(=O)Cc2ccc(OC)cc2)cc1
i	-0.08	Cc1ccc2nc(-c3cc(N)cc(N)c3)oc2c1
i	-0.59	CCc1c(C)c(C#N)c2nc3ccccc3n2c1Cl
i	0.04	CCOc1ccccc1C1CC(=O)Nc2cc(C)c(C)cc21 (stereo unspecified)
i	0.96	CCC(=O)Oc1ccc(NC(=O)c2ccco2)cc1
i	-1.33	Cc1ccc(C(C)C)c(OCCCN2CC(C)OC(C)C2)c1 (stereo unspecified)
i	-1.07	O=C(N/N=C1\CCS(=O)(=O)c2ccc(F)cc21)c1ccc([N+](=O)[O-])cc1
i	-0.01	CCOC(=O)c1ccc(NC(=O)C(=O)NCCc2ccc(OC)cc2)cc1
i	0.01	O=C(OCc1nnc(-c2ccc(Br)cc2)o1)c1cncc(Br)c1
i	1.26	CCC(c1nnc(SCC(=O)NNC(=O)c2ccccc2)n1Cc1ccccc1)N(C)C (stereo unspecified)
i	0.07	O=S(=O)(c1cccc(Cl)c1)N1CCCC1
i	0.35	COc1cccc(C(=O)N2CCN(Cc3ccccc3Br)CC2)c1
i	2	Cc1cc(C)cc(N(C(=O)Cn2nnc(-c3ccccc3)n2)C(C(=O)NC2CCCCC2)c2ccccn2)c1 (stereo unspecified)
i	2.52	Cc1ccc(OCC(=O)c2ccc3c(c2)CCCC3)cc1C
i	-1.08	COc1ccc(C(CNC(=O)c2cc3c(s2)CCCC3)N2CCOCC2)cc1 (stereo unspecified)
i	-0.02	CCOC(=O)c1c(NC(=O)CN2CCCCC2)sc2c1CCCC2O (stereo unspecified)
i	-0.32	Cc1ccc2nc(N3CCN(c4ccccc4)CC3)c(C=O)c(=O)n2c1
i	-1.07	O=C(N/N=C\c1cccnc1)c1cc(-c2ccccc2)nc2c(Cl)cccc12
-11.3*	0.04*	Cc1cc(NC(=O)c2cc(-c3cccc(OCC(C)C)c3)nc3ccccc23)no1
i	0.63	O=C(O)c1ccc(Nc2cccc(F)c2)c([N+](=O)[O-])c1
i	1.82	CC(=O)c1sc2nsc(SCCN3CCCC3)c2c1N
i	1.05	Oc1ccc2ccccc2c1C=NCc1ccccc1
i	2.51	Cc1ccccc1NC(=O)C1C2CCC(O2)C1C(=O)O (stereo unspecified)
i	0.39	CCc1cc(C(=O)N(CC(C)C)c2c(N)n(Cc3ccccc3)c(=O)[nH]c2=O)sc1C
i	-0.19	COc1ccccc1CNC(=O)COc1ccccc1C
i	1.44	N#C/C(C(=O)NCc1ccco1)=C1/SC=C(c2ccccc2)N1c1ccccc1
i	-0.09	Cc1ccc(C(=O)NNC(=O)Cn2ccc(C(F)(F)F)n2)o1
i	3.22	COc1ccc(S(=O)(=O)Nc2cc(C)cc(C)n2)c2ccccc12
i	-0.4	CCn1c(CNC(=O)c2ccco2)nnc1SCC(=O)Nc1cccc(F)c1

Continuation:
KCNQ2 inh	KCNQ2 inh baseline	molecule
i	-2.47	Cc1ccc(-n2c(=O)cc(N3CCN(C(=O)c4ccco4)CC3)[nH]c2=O)cc1
i	-0.09	COc1ccc(S(=O)(=O)n2nc(OC(C)=O)cc2N(C(C)=O)C(C)=O)cc1
i	1.36	CC(Cc1ccccc1)NC(=O)C1CCCNC1=O (stereo unspecified)
i	1.01	CC(NC(=O)CCOc1ccccc1)c1ccccc1 (stereo unspecified)
i	0.51	Cc1ccc(C(O)c2cccnc2)o1 (stereo unspecified)
i	0.01	CC(C)C(=O)Nc1ncc(Cc2ccccc2Cl)s1
i	-0.51	CCCC(C)NC(=O)CN(c1ccc2c(c1)OCCO2)S(=O)(=O)c1ccccc1 (stereo unspecified)
i	0.14	CCn1c(SCc2ccc(C)cc2)nnc1-c1nn(-c2ccccc2)ccc1=O
i	1.5	O=S(=O)(NC1CCCCC1Oc1ccccc1)c1ccccc1 (stereo unspecified)
i	-0.96	COc1ccc(Cl)cc1-n1c(C)ccc1C
i	0.08	COc1ccc(C(=O)CN(C(=O)c2ccc(Cl)cc2)N2C(=O)C3CCCCC3C2=O)cc1 (stereo unspecified)
i	-1.37	Cc1cccc(OCC(=O)NCCNC(=O)c2cnccn2)c1
i	-1.85	O=c1cc(CSc2nnc(COc3ccccc3)o2)c2ccccc2[nH]1
i	0.42	Cc1sc(N(C(=O)CCc2ccccc2)c2ccc(C(=O)O)cc2)nc1-c1ccccc1
i	0.36	CC(=O)N(C(C)=O)c1nc(-c2ccccc2)cn1/N=C/c1ccccc1
i	-0.63	COc1ccc(NC(=O)Cn2nnc(C(=O)NCc3ccc4c(c3)OCO4)c2N)cc1
i	1.43	COc1ccc(C(C(=O)NC(C)(C)C)N(C(=O)CNC(=O)c2cccs2)c2ccc(C(C)C)cc2)cc1OC (stereo unspecified)
i	1.89	CCOC(=O)N1CCC(N2CCCC(C(=O)c3cccc(OC)c3)C2)CC1 (stereo unspecified)
i	0.04	Cc1ccc(C)n1-n1c(C)nc2scc(-c3ccccc3)c2c1=O
i	-0.49	COc1ccc(OC)c(C2/C(=C(/O)c3ccccc3)C(=O)C(=O)N2Cc2ccco2)c1 (stereo unspecified)
i	-0.93	CCc1ccccc1NNC(=O)c1snnc1C
i	0.8	Cc1cc(=O)oc2c3c(cc(OCC(=O)N[C@H](C(=O)O)c4ccccc4)c12)OC(C)(C)CC3
i	0.71	C[C@H](NC(=O)OCc1ccccc1)c1nnc([C@H](Cc2ccccc2)NC(=O)OC(C)(C)C)o1
i	-1.29	COc1ccc(OCCNS(=O)(=O)c2ccccc2)cc1
i	-1.97	COc1ccccc1N(O)C1CC(=O)N(c2ccc(Br)cc2)C1=O (stereo unspecified)
i	-1.82	CC(C)CC(=O)N1CCC(N(CCc2ccccc2)Cc2ccccc2)CC1
i	-0.02	O=C1CN(C(=O)COC(=O)c2ccccc2NC(=O)c2ccco2)c2ccccc2N1
i	0.81	CC1(C)CC(=O)C2=C(C1)N(c1ccc(F)cc1)C(=O)C2(NC(=O)c1ccccc1)C(F)(F)F (stereo unspecified)
i	-0.92	COc1ccc(Cl)cc1C(=O)NCC#N
i	-0.18	O=c1cc(CO)oc(CN2CCN(c3cccc(C(F)(F)F)c3)CC2)c1O
i	-0.22	COc1ccc(C2(C(=O)Nc3ccc(C)c(C)c3)CCOCC2)cc1
i	-1.23	Cc1cc(C)c2c(c1)/C(=N/NC(=S)Nc1ccc(F)cc1)CCC2
i	-0.86	Cc1ccc(C)c(S(=O)(=O)N2CCCC2CNC(=O)c2ccc([N+](=O)[O-])cc2)c1 (stereo unspecified)
i	0.08	Cc1cc(OCC(=O)OCC(=O)N(C)c2c(N)n(Cc3ccccc3)c(=O)[nH]c2=O)ccc1Cl
i	0.88	O=C(CC1C(=O)NCCN1Cc1c(F)cccc1Cl)NCCC1=CCCCC1 (stereo unspecified)

Entries of single compounds, quoted from the list.
O=c1cc(N2CCc3ccccc32)[nH]c(=O)n1Cc1ccc(F)cc1 reads KCNQ2 inh: i; KCNQ2 inh baseline: 2.18
COc1ccc(S(=O)(=O)n2nc(OC(C)=O)cc2N(C(C)=O)C(C)=O)cc1 reads KCNQ2 inh: i; KCNQ2 inh baseline: -0.09

Bioassay records: PubChem, Johns Hopkins Ion Channel Center

The list is partial, so the mix of outcomes need not match the whole.
